Screening data from PubChem.
Menin-MLL FL inh: qHTS Assay for Inhibitors Targeting the Menin-MLL Interaction in MLL Related Leukemias: Competition With Fluorescein Labeled MLL-derived Peptide | AID 1766, 2009 | Fluorescence polarization, fluorescein-MLL peptide displacement from menin | 290,000 tested, under 10 active | FP activity change, % at 61.4 µM; inconclusive = falling polarisation curve, or a change in total fluorescence; inactive = total fluorescence flat and polarisation flat or rising; no compound was filed as active; the % refers to the polarisation; negative = inhibition;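 further: % of control where 0% means no effect; inhibitors lower the polarisation; unlabelled MLL peptide was the positive control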
PINK1 expr mod: A Quantitative High throughput Screen to Identify Chemical Modulators of PINK1 Expression | actives 0.2% (n = 410,000) | AID 624263, 2012 | PINK1 immunofluorescence, high-content cytometry, 24 h | Potency, µM (series often up to 76.6 µM), without a hit: at the highest dose activation (PINK1 increase), actives largely listed as activators; active = well fitted activation curve with a large enough effect; inconclusive = small, poorly fitted or top-dose-only effect; inactive = flat fitted curve, though single readings scatter; cell line not stated here;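 further: potency means the concentration at half of the fitted maximal effect; % of control where 0% means no effect; nearly all actives have a fitted effect of over 65% in size; a mitochondrial uncoupler was the plate control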
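A stable cell line was treated with compounds at 5 concentrations for 24 hours, with CCCP as control. PINK1 levels and mitochondrial localization were measured by immunofluorescence with mitochondrial, cell and nuclear markers after fixation, read by laser-scanning cytometry.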
D2 agonist: Beta-Arrestin HTS for Positive Allosteric Modulators of the Human D2 Dopamine Receptor: Agonists. DiscoveRx PathHunter D2 beta-arrestin, luminescence, 90 min; 100% = 57 uM dopamine signal. activation, % (test concentration not listed). actives 0.084% (n = 360,000). AID 624465, 2012; in the data active = activation above about 40%; inconclusive = about 15% to 40%; inactive = below about 15%; further: compound concentration not given in the record; the text of the record calls up to 30% inactive
Target sequence (P14416 whole entry, looked up): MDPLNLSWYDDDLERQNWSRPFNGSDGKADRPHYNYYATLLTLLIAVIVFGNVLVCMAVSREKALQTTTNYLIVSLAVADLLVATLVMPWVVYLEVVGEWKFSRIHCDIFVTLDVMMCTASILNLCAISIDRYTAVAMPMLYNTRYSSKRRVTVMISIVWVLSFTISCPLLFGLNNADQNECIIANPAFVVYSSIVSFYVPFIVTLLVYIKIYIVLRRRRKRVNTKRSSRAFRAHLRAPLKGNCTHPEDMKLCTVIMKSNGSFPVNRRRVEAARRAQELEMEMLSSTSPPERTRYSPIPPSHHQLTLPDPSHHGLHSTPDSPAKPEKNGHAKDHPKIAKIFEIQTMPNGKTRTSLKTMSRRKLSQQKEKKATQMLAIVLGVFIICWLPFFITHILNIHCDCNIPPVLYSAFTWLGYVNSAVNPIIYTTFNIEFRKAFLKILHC
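DiscoveRx PathHunter D2 beta-arrestin cells (2,100/well) attached overnight, then compound-stimulated 90 min at 37 C in HBSS/10 mM HEPES/0.1% Tween-20 buffer; beta-galactosidase complementation read by luminescence after 1 h at ambient temperature. Dopamine 57 uM final (EC100) as control.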
Sfp PPTase inh: qHTS Assay for Inhibitors of Bacillus subtilis Sfp phosphopantetheinyl transferase (PPTase); 4'-phosphopantetheinyl transferase ffp (Bacillus subtilis), Q9F4F7; Biochemical Sfp PPTase activity, qHTS; Potency, µM, without a hit: max response, negative = inhibition, hits mostly inhibitors; actives 3.5% (n = 310,000); active means well fitted inhibition curve with a large enough effect; inconclusive means small, poorly fitted or top-dose-only effect, or another doubt; inactive means no such curve, though single readings can be large or run the other way;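 further: the enzyme is Sfp with the accession as filed and its product quenches rhodamine fluorescence; potency means the concentration at half of the fitted maximal effect; 0% = enzyme reaction without inhibitor and -100% = no enzyme wells; top concentration of the series not given in the record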
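Sfp 15 nM + cpd, 15 min RT; start w/ rhodamine-CoA 5 uM, BHQ-2-YbbR 12.5 uM (final); 50 mM Hepes pH 7.6, 10 mM MgCl2, 0.01% NP-40, 0.01% BSA; read 525/598 nm at 0 and 30 min.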
gsp antag: qHTS for Antagonists of gsp, the Etiologic Mutation Responsible for Fibrous Dysplasia/McCune-Albright Syndrome: qHTS. gsp-mutant cells, cAMP HTRF, 30 min; control for the full effect not named in the record. Potency, µM (titrated, usually from 76.9 µM), without a hit: at the highest dose activity change, negative = inhibition, usual class: inhibitors. actives 0.4% (n = 340,000); active = falling curve of any shape with a large fitted effect; inconclusive = falling curve, mostly with a smaller effect; inactive = flat or rising curve; cell line not stated here;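 further: intracellular cAMP measured with PDE inhibitor Ro 20-1724 present during compound exposure; potency means the concentration at half of the fitted maximal effect; on the % scale 0 is the no-effect control and ±100 the full control effect; nearly all actives have a fitted effect of over 65% in size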
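HTRF cAMP measurement after 30 min RT detection following 30 min, 37C compound treatment alongside […] (added as 300 uM solution) in G418-selected cells seeded at 2000/well and grown 16–24 h.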
gsp agonist: qHTS for Agonist of gsp, the Etiologic Mutation Responsible for Fibrous Dysplasia/McCune-Albright Syndrome: qHTS | gsp mutant cells, cAMP HTRF, 30 min; control for the full effect not named in the record | Potency, µM (series often up to 76.9 µM), without a hit: top-dose activation (cAMP increase), most hits filed as activators | actives 0.13% (n = 340,000); active = well fitted activation curve with a large enough effect; inconclusive = small, poorly fitted or top-dose-only effect, or another doubt; inactive = no such curve, though single readings can be large or run the other way; cell line not stated here;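 further: phosphodiesterase inhibitor Ro 20-1724 added with compounds to block cAMP breakdown; potency means the concentration at half of the fitted maximal effect; nearly all actives have a fitted effect of over 60% in size; about a fifth of the inactives were tested at one dose only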
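Cells stably selected in G418 were plated at 2000/well, grown 16-24 hr, then given compounds in DMSO with the PDE inhibitor […] (300 uM solution added) for 30 min at 37C; cAMP was read by HTRF.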
ClpP mod: qHTS Assay for Activators of ClpP. ATP-dependent Clp protease proteolytic subunit (Bacillus subtilis (strain 168)), P80244. purified B. subtilis ClpP, FRET peptide cleavage, 20 min. Potency, µM (top dose mostly 57.5 µM), for inactives: at the highest dose activity change, negative = active. actives 1.9% (n = 340,000); active = well fitted falling curve with a large enough effect; inconclusive = small, poorly fitted or top-dose-only effect; inactive = no such curve, though single readings can be large or run the other way; further: potency means the concentration at half of the fitted maximal effect; the source files actives as falling curves though it sought activators and does not explain the sign; nearly all actives have a fitted effect of over 65% in size; many hits overshoot -100%
Target sequence (P80244 whole entry, looked up): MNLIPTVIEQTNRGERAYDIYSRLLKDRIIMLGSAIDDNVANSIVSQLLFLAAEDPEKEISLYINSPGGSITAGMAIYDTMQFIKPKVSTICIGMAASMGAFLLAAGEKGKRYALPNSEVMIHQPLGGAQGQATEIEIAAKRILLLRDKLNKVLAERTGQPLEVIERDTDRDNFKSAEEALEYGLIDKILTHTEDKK
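Purified B. subtilis ClpP, 10 microg/mL final in Tris/HCl pH8 with KCl, BSA, glycerol and Tween-20, cleaved an Abz/nitrotyrosine-quenched decapeptide. Fluorescence (ex 320, em 430) was read at 0 and 20 min at room temperature. Delta was normalized to 5.8 microM ADEP and DMSO/no-enzyme controls.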
Active calls of the source: *; ? = inconclusive; . = no result given; [ ] = another dose, or the depositor's remark.

SMILES | gsp agonist | PINK1 expr mod | Menin-MLL FL inh | D2 agonist | Sfp PPTase inh | ClpP mod | gsp antag
CN(C(=O)c1cccc(Cl)c1)C1CCCN(Cc2ccccc2F)C1 (configuration not stated) | -15% | 5.2% | 0.7 | -1.7 | 10% | 0.3% | -5%
O=C1c2ccccc2C(O)N1Cc1ccccc1Cl (configuration not stated) | 22% | -0.1% | -1.7 | 0.6 | -2% | 1.5% | -4%
CC(=O)NC(CC(=O)OC(C)C(=O)Nc1ccc(Cl)cn1)c1ccccc1 (configuration not stated) | -16% | 0.2% | . | -3.7 | . | -0.2% | 3%
N#Cc1ccc(CN2CC[C@@]3(CCCN(C(=O)c4ccco4)C3)C2)cc1 | . | 0.4% | -5.2 | . | 20% | . | .
Cc1cnc(=O)[nH]c1SCc1cccc([N+](=O)[O-])c1 | 7% | -0.5% | 2.4 | 11 | 3% | -0.2% | -1%
O=C(/C=C/c1ccc([N+](=O)[O-])cc1)NCc1cccs1 | -57%[inhibitor] | -2.1% | 4.0 | 3.6 | 2% | -4.0% | 6%
Cc1ccc(Cn2c(Sc3ncccn3)nc3c2c(=O)[nH]c(=O)n3C)cc1 | 26% | -1.2% | 3.2 | -2.2 | 18% | -5.2% | 16%
CS(=O)(=O)N1CCCC(c2nc(-c3ccc(S(=O)(=O)NCc4ccccc4)cc3)no2)C1 (configuration not stated) | 4% | -0.8%[38.3 µM] | 0.5 | -1.0 | 4% | -2.3% | ?
Cc1ccc(S(=O)(=O)Cn2nnnc2C(CC(C)C)N2CCN(C)CC2)cc1 (configuration not stated) | -43% | -0.5% | -0.3 | -3.2 | -18% | . | 0%
O=C(O)c1ccc2c(c1)C(=O)N(c1ccc(Nc3ccccc3)cc1)C2=O | -22% | 1.4% | -2.1 | -7.5 | 23% | 0.0% | -22%
CC(C)Cc1nnc(NC(=O)CC(=O)Nc2ccccc2C(=O)O)s1 | -29% | -1.3% | -4.8 | -2.8 | -7% | -11% | -3%
Cn1c(N)c(C(=O)COC(=O)c2ccc(C(F)(F)F)cc2)c(=O)n(C)c1=O | 17% | 1.1% | . | 1.9 | . | 0.5% | ?
CCOC(=O)c1cc(-c2ccccc2)sc1NC(=O)CSc1nnnn1C | 8% | 6.6%[38.3 µM] | 4.2 | -2.6 | -14% | -3.0% | ?
Cc1noc(C)c1S(=O)(=O)N(CC(=O)NC1CCC(C)CC1)c1ccc(C(C)C)cc1 (configuration not stated) | 6% | 5.8% | . | 1.0 | 13% | 3.0% | 4%
CCC(=O)NN1CCc2cc3ccc(C)cc3nc21 | -14% | 0.1% | -0.4 | -3.4 | 18% | . | 9%
COc1ccc(C(=O)NCCC(=O)NCc2cc(=O)n(C)c(=O)n2C)cc1 | 14% | 2.0% | . | -0.2 | -1% | -1.4% | -2%
CC1(c2ccccc2)NC(=O)N(CC(=O)Nc2ccccc2N2CCCCC2)C1=O (configuration not stated) | -2%[15.4 µM] | 1.0% | . | -4.2 | . | 1.0% | -3%
O=C(NC(Cc1ccccc1)C(=O)O)/C(=C\c1ccco1)NC(=O)c1ccccc1Br (configuration not stated) | -17% | -0.4% | ? | -2.9 | 50µM* | 2.2% | -15%
CCOc1ccc(OCC)c(NC(=O)CC2Oc3ccc(C)cc3NC2=O)c1 (configuration not stated) | 5% | 3.9% | 3.2 | -0.6 | 3% | -1.4% | -9%
CCN(CC(=O)Nc1ccc(OC)cc1)C(=O)CSCc1ccc(C)cc1 | -2% | -0.3% | . | -4.2 | . | -1.7% | 7%
OC(CNC1CCCC1)COc1c(F)cc(Br)cc1F (configuration not stated) | -13% | -9.9%[38.3 µM] | 3.7 | -4.1 | 10% | -0.7% | 12%
O=C(Cc1c[nH]c2ccccc12)N1CCN(S(=O)(=O)c2cccc(Cl)c2Cl)CC1 | -17% | 0.6% | . | 0.4 | . | 1.6% | -30%
c1coc(C2Nc3ccccc3-c3nc4ccccc4n32)c1 (configuration not stated) | -16% | -1.6%[38.3 µM] | 6.3 | 1.0 | -11% | 2.8µM* | 3%
CN(CC(=O)NCCCN1CCOCC1)S(=O)(=O)c1ccc(F)cc1 | 23%[15.4 µM] | 1.9% | 0.5 | 5.3 | 11% | -24% | -7%
O=[N+]([O-])c1cc(S(=O)(=O)c2ccc(N3CCCCC3)c([N+](=O)[O-])c2)ccc1N1CCCCC1 | -2%[15.4 µM] | 0.7% | -1.8 | -1.2 | 2% | -0.9% | -7%
CCCC(=O)N1CCN(c2ccc(NC(=O)C(C)(C)C)cc2)CC1 | -31% | -1.9% | 1.2 | -2.7 | 11% | -0.6% | -4%
Cc1cnc(NC(=O)CC2OC(=O)c3ccccc32)s1 (configuration not stated) | 12%[15.4 µM] | 5.9% | . | -6.2 | . | . | -3%
Cc1ccc(S(=O)(=O)/N=C(\N)Nc2nc(C)c3cc(C)ccc3n2)cc1 | -24% | 4.6%[38.3 µM] | 2.3 | -0.7 | -2% | ? | 4%
CCOc1cc(/C=C2/N=C(c3ccc(C(C)(C)C)cc3)OC2=O)cc(Cl)c1OS(C)(=O)=O | -13% | 6.3%[38.3 µM] | 2.3 | -4.0 | 16% | ? | -5%
O=C(O)c1ccc2c(c1)C(=O)N(NC(=O)c1ccccc1)C2=O | 11% | 1.9%[38.3 µM] | ? | -1.0 | 6% | 0.9% | 9%
Cc1cc(N2CCCCC2)nc2ccc(NC(=O)CCC(=O)NCCC(C)C)cc12 | ? | -1.3% | 0.3 | -1.4 | -1% | 16µM* | -9%
CC1=C(C(=O)Nc2ccccc2C(F)(F)F)C(c2ccc(C)s2)NC(=S)N1 (configuration not stated) | -28% | -0.2% | -2.8 | 6.5 | 13% | . | -7%
COc1ccc(C(=O)CSc2nc(C)cc(C)n2)cc1[N+](=O)[O-] | 5% | 2.6% | -1.3 | -0.8 | 6% | . | -10%
Cc1cc(-c2nc3cc(F)ccc3s2)ccc1N | -5% | 7.0% | . | 0.1 | . | ? | -13%
O=C(Nc1ccc(S(=O)(=O)Nc2ncccn2)cc1)c1cncc(Br)c1 | -26% | 1.8% | 4.4 | -2.3 | 27% | -2.5% | 2%
COc1ccc2oc(=O)c(-c3cn4ccc(C)cc4n3)cc2c1 | -10%[15.4 µM] | 11% | 2.8 | -5.1 | -26% | . | 1%
CC(=O)C1CCC2C3CC=C4CC(SC(=N)N)CCC4(C)C3CCC12C (configuration not stated) | 1% | -5.1% | . | -2.1 | . | -1.3% | -8%
COC(=O)c1c(NC(=O)CC2SC(N)=NC2=O)sc2c1CCC(C(C)(C)C)C2 (configuration not stated) | -23% | -3.0% | 4.8 | 7.7 | -11% | ? | -17%
CC1CC(C)CN(C(=O)CN2C(=O)NC3(CCCCCC3)C2=O)C1 (configuration not stated) | -12% | -1.6% | . | -1.1 | . | . | 13%
C=CCn1c(SC/C=C/c2ccccc2)nnc1-c1sc(N)nc1C | -10% | -2.1% | 6.6 | -0.2 | -5% | 0.0% | -7%
CCN(CC)C(=O)c1sc2nc(-c3ccncc3)[nH]c(=O)c2c1C | 1% | 3.6% | -0.1 | -0.4 | 10% | -20% | 1%
Cc1ccc(OCc2cc(C(=O)N3CCCCCCC3)no2)cc1C | -5% | 0.7% | . | 5.6 | 7% | 1.7% | 5%
CSCCC(NS(=O)(=O)c1ccc(C)cc1)C(=O)N1CCN(C(C)=O)CC1 (configuration not stated) | 10% | 4.5% | . | 2.3 | . | -5.3% | 8%
CCC(C(=O)NCCCc1ccccc1)n1nc(C)c2c(C)n(-c3ccccc3)nc2c1=O (configuration not stated) | 10% | 0.8% | . | -14 | 2% | -0.2% | -18%
CC(=O)Oc1cccc(C(=O)Nc2cccc(C(=O)Nc3ccccc3C(=O)O)c2)c1 | 2%[15.4 µM] | 1.1% | -0.1 | 2.7 | 17% | -1.5% | -12%
COc1ccc(NC(=S)NC(=O)C2CCC2)cc1 | -5% | -0.9% | . | -0.6 | -5% | -1.4% | 7%
CC1(C)CC=C(NNC(=O)c2cccnc2)C(=O)C1 | 3% | 1.0% | ? | 0.2 | 24% | -0.9% | 12%
CC(NC(=O)C1CCC(C(=O)NC(C)c2ccccc2)CC1)c1ccccc1 (configuration not stated) | 5% | 2.2% | 3.1 | -1.7 | 10% | 0.5% | 3%
CN1CCN(NC(=O)c2cn(-c3ccccc3)nc2-c2ccc(OC(F)F)cc2)CC1 | 6%[15.4 µM] | -0.7% | 0.7 | -13 | 8% | . | .
COc1ccc(-c2cc([C@H]3[C@H]4C=CC[C@@H](C)[C@@H]4C(=O)N3Cc3ccccc3)ccc2F)cc1OC | 9% | 1.4% | 0.8 | -3.2 | ? | 32µM* | -22%
O=C(COc1ccccc1)N(CCc1ccccc1)c1nc(-c2ccc(F)cc2)cs1 | -27% | 1.1% | 1.8 | 1.4 | -14% | -3.1% | 10%
COc1ccc(C2CCc3cc4c(cc3C2=NO)OCO4)cc1OC (configuration not stated) | -27% | 2.9% | . | 0.7 | . | -1.1% | .
CCc1nc2c(OCC(=O)c3ccc(F)cc3)cccn2c1N(C)C(=O)c1cccs1 | . | -0.8% | . | 0.9 | . | -1.0% | .
Cn1c(=O)n(Cc2ccccc2)c(=O)c2c1nc1n2CCCN1CCc1ccccc1 | -26% | -2.9%[38.3 µM] | 0.8 | -0.6 | -7% | -7.6% | -23%
Cc1ccc(-n2c(C)cc(/C=N/NC(=O)c3ccncc3)c2C)c(C)c1 | -2% | 2.7%[38.3 µM] | -0.3 | -1.4 | 1% | 1.7% | 20%
CCOC(=O)c1c(NC(=O)C2C3CCC(O3)C2C(=O)O)sc(C)c1-c1ccc(C)cc1 (configuration not stated) | 7% | 1.8% | -6.7 | -0.7 | -17% | -16% | ?
